Source: PubChem (Broad Institute)
NOMO-1 viab = STK33 inhibitor candidate reducing NOMO-1 cell viability | AID 2330 | inhibition, % (no concentration beside the values) | actives 7.5% (n = 37,000) | NOMO-1 AML viability, CellTiter-Glo luminescence, 72 h;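 active means most replicates above 80%; inconclusive means exactly half above 80%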;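 further: wells of about 30 µL received 25 nL stock; 0% = median of vehicle wells and 100% = reference inhibitor level; the first replicate is given; inactives centre near 10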
The depositor's hits bear a star; ? = inconclusive. A portion of the library; count on the stated rates, not on these rows.

SMILES	NOMO-1 viab
O=C1OCc2cc3cccc(O[C@@H]4O[C@H](CO[C@@H]5OC[C@@H](O)[C@H](O)[C@H]5O)[C@@H](O)[C@H](O)[C@H]4O)c3c(O)c21	-10
COc1ccc(C2=Cc3ccccc3C(C)(C)O2)cc1	16
Cc1ccc(S(=O)(=O)Nc2ccc3c(c2)CC(=O)N([C@H](C)CO)C[C@H](C)[C@H](CN(C)Cc2ccc(C(=O)O)cc2)O3)cc1	16
Cc1ccc2c(C)c(C(=O)Nc3sc4c(c3C(=O)NCC3CCCO3)CCCC4)oc2c1 (stereo unspecified)	114*
CC(C)NC(=O)Nc1ccc2c(c1)C(=O)N([C@H](C)CO)C[C@H](C)[C@H](CN(C)C(=O)Nc1ccccc1)OCCCC[C@@H](C)O2	17
COc1ccc(S(=O)(=O)Nc2cccc3c2O[C@@H](CN(C)S(=O)(=O)c2ccc(OC)cc2)[C@@H](C)CN([C@@H](C)CO)C3=O)cc1	5
C[C@@H]1CN([C@H](C)CO)C(=O)Cc2cc(NC(=O)CCCCCC(=O)Nc3ccccc3N)ccc2O[C@@H]1CN(C)C	48
C[C@@H]1CN([C@@H](C)CO)C(=O)c2cc(NC(=O)Cn3cnnn3)ccc2O[C@@H]1CN(C)Cc1ccncc1	-23
O=C(Cc1ccccc1[N+](=O)[O-])Nc1ccccc1C(=O)NC1CCCCC1	-3
C[C@@H]1CN([C@H](C)CO)C(=O)Cc2cc(NS(=O)(=O)c3cccs3)ccc2O[C@@H]1CN(C)Cc1ccc(C(F)(F)F)cc1	25
Cc1c(Cl)cccc1NC(=O)CSc1nc(-c2ccccc2)cs1	2
Cc1cc(=O)[nH]c(SCCOc2cccc(Oc3ccccc3)c2)n1	1
COc1ccc(NC(=O)Nc2ccc3c(c2)CC(=O)N([C@@H](C)CO)C[C@H](C)[C@@H](CN(C)Cc2ccc(C(=O)O)cc2)O3)cc1	2
CC1OC(OC2C(C(=O)O)OC(O[C@H]3CC[C@@]4(C)C(CC[C@]5(C)C4CC=C4C6CC(C)(C)CC[C@]6(C(=O)OC6OC(CO)C(O)C(O)C6O)CC[C@]45C)C3(C)C)C(O)C2O)C(OC2OCC(O)C(O)C2O)C(O)C1O (stereo partly specified)	1
CNC(=O)COc1ccc(Nc2nnc(-c3ccc(OC)cc3)c3ccccc23)cc1	14
CCOC(=O)c1ccc(NC(=O)CCc2c[nH]c3ccccc23)cc1	-7
C[C@@H]1CCCCO[C@@H](CN(C)C(=O)C2CCCCC2)[C@@H](C)CN([C@H](C)CO)C(=O)c2cc(NS(=O)(=O)c3ccc(Cl)cc3)ccc2O1	43
COc1ccc(NC(=O)Nc2cccc3c2O[C@H](CN(C)Cc2ccc(-c4ccccc4)cc2)[C@H](C)CN([C@@H](C)CO)C3=O)cc1	?
COc1ccc(S(=O)(=O)N(C)C[C@@H]2Oc3ccc(NC(=O)Nc4c(C)noc4C)cc3CC(=O)N([C@H](C)CO)C[C@@H]2C)cc1	-13
Cc1noc(C)c1NC(=O)Nc1ccc2c(c1)CC(=O)N([C@H](C)CO)C[C@H](C)[C@H](CN(C)C(=O)Nc1ccc(C(F)(F)F)cc1)O2	32
O=C(COc1ccc(I)cc1)Nc1ccc(O)cc1C(=O)O	-16
CNC[C@H]1Oc2c(NC(=O)C3CCCCC3)cccc2C(=O)N([C@@H](C)CO)C[C@@H]1C	1
COc1ccc(NC(=O)Nc2ccc3c(c2)CC(=O)N([C@H](C)CO)C[C@@H](C)[C@@H](CN(C)S(=O)(=O)c2ccccc2)O3)cc1	10
Cc1noc(C)c1S(=O)(=O)N(C)C[C@@H]1Oc2ccc(NS(C)(=O)=O)cc2CC(=O)N([C@H](C)CO)C[C@@H]1C	-14
O=C(O)c1ccc2nc(CCc3nc4ccc(C(=O)O)cc4[nH]3)[nH]c2c1	5

New compounds follow
SMILES	NOMO-1 viab
COc1cc(C2NC(=S)NC(C)=C2C(=O)Nc2ccccc2Cl)ccc1OCC#N (stereo unspecified)	-8
O=C(Nc1ccc(S(=O)(=O)Nc2ncccn2)cc1)c1c(Cl)cccc1Cl	5
Cc1ccc2nc(-c3cccc(NC(=O)COc4ccc([N+](=O)[O-])cc4)c3)oc2c1	16
CN(CC(=O)Nc1ccc2c(c1)OCCO2)S(=O)(=O)c1ccc2ccccc2c1	-5
O=c1[nH]c2ccc(Cl)cc2c2oc(-c3ccccc3)nc12	14
C[C@@H]1CN([C@H](C)CO)C(=O)c2cccc(NS(=O)(=O)c3ccc(F)cc3)c2O[C@H]1CN(C)Cc1ccncc1	13
CNC[C@@H]1Oc2ccc(NC(=O)NC3CCCCC3)cc2CC(=O)N([C@H](C)CO)C[C@@H]1C	-15
COC(=O)COc1ccc(S(=O)(=O)NC2CCCCCC2)cc1	119*
C[C@@H]1CN([C@H](C)CO)C(=O)c2cc(NC(=O)C3CCCCC3)ccc2O[C@H]1CN(C)Cc1ccc(C(F)(F)F)cc1	52
COc1ccc(S(=O)(=O)N(C)C[C@@H]2Oc3c(NS(=O)(=O)c4ccccc4)cccc3C(=O)N([C@@H](C)CO)C[C@H]2C)cc1	9
Cc1ccc(-c2nc3ccccc3s2)cc1NC(=O)COc1ccccc1C	30
COc1ccc(NC(=O)N(C)C[C@H]2Oc3ccc(NS(=O)(=O)c4ccc(OC)cc4)cc3C(=O)N([C@@H](C)CO)C[C@H]2C)cc1	-5
Cc1noc(C)c1NC(=O)N(C)C[C@H]1Oc2ccc(NC(=O)c3ccncc3)cc2C(=O)N([C@@H](C)CO)C[C@@H]1C	4
Cc1noc(C)c1NC(=O)N(C)C[C@H]1OCCCC[C@@H](C)Oc2ccc(NC(=O)c3ccccc3)cc2C(=O)N([C@H](C)CO)C[C@@H]1C	21
C[C@@H]1CN([C@H](C)CO)C(=O)c2cc(NC(=O)Cc3cn(C)c4ccccc34)ccc2O[C@@H]1CN(C)C(=O)Nc1ccccc1	50
C[C@@H]1CN([C@@H](C)CO)C(=O)Cc2cc(NS(=O)(=O)c3cccs3)ccc2O[C@@H]1CN(C)S(=O)(=O)c1cccs1	26
COc1cc(OCCN2CCOCC2)ccc1C1C(C#N)=C(N)Oc2nc(C(F)(F)F)[nH]c21 (stereo unspecified)	27
Cc1noc(C)c1S(=O)(=O)Nc1ccc2c(c1)C(=O)N([C@H](C)CO)C[C@H](C)[C@@H](CN(C)Cc1ccccc1)OCCCC[C@@H](C)O2	9
C[C@H]1CN([C@@H](C)CO)C(=O)c2cccc(NC(=O)c3ccc(-c4nccs4)cc3)c2O[C@@H]1CN(C)S(=O)(=O)c1cccs1	10
COC(=O)c1ccc(COc2ccc3c(c2)oc(=O)c2cc(OC)ccc23)o1	30
COc1ccccc1CC(=O)Nc1ccc(-c2noc(-c3cc(OC)c(OC)c(OC)c3)n2)cc1	36
Cc1ccccc1NC(=O)CSc1nnc(-c2ccc([N+](=O)[O-])cc2)n1C	-7
Nc1nc(SCC(=O)Nc2ccccc2)[nH]c(=O)c1-c1ccccc1	-3
C[C@H](CO)N1C[C@H](C)[C@H](CN(C)C(=O)Nc2cccc3ccccc23)Oc2ccc(NC(=O)CCC(F)(F)F)cc2C1=O	0
COc1ccc(CN(C)C[C@H]2Oc3ccc(NC(=O)Cc4cn(C)c5ccccc45)cc3CC(=O)N([C@H](C)CO)C[C@H]2C)cc1	11

4 entries from above in another layout.
SMILES,NOMO-1 viab
CNC[C@@H]1Oc2ccc(NC(=O)NC3CCCCC3)cc2CC(=O)N([C@H](C)CO)C[C@@H]1C,-15
COC(=O)COc1ccc(S(=O)(=O)NC2CCCCCC2)cc1,119*
C[C@@H]1CN([C@H](C)CO)C(=O)c2cc(NC(=O)C3CCCCC3)ccc2O[C@H]1CN(C)Cc1ccc(C(F)(F)F)cc1,52
COc1ccc(S(=O)(=O)N(C)C[C@@H]2Oc3c(NS(=O)(=O)c4ccccc4)cccc3C(=O)N([C@@H](C)CO)C[C@H]2C)cc1,9

The list continues.
SMILES	NOMO-1 viab
Cc1ccc(C(=O)Nc2ccccc2C(=O)NCc2ccco2)cc1[N+](=O)[O-]	14
Cc1ccc(-c2noc(CN(C(=O)c3ccccc3-c3ccccc3)C(C)C)n2)cc1	87*
C[C@@H]1CN([C@H](C)CO)C(=O)Cc2cc(NS(=O)(=O)c3ccc(F)cc3)ccc2O[C@H]1CN(C)S(C)(=O)=O	22
C[C@@H]1CN([C@H](C)CO)C(=O)c2cccc(NS(=O)(=O)c3cn(C)cn3)c2O[C@H]1CN(C)Cc1ccc(C(=O)Nc2ccccc2N)cc1	26
CC(=O)c1cccc(NC(=O)CS(=O)(=O)c2ccccc2)c1	8
Cc1cc(OCC(=O)Nc2cccc(-c3nc4ccccc4o3)c2C)cc(C)c1Cl	?
CC(C)NC(=O)Nc1ccc2c(c1)C(=O)N([C@H](C)CO)C[C@H](C)[C@@H](CN(C)Cc1ccc3c(c1)OCO3)O2	-17
COc1ccc(NC(=O)Nc2ccc3c(c2)CC(=O)N([C@H](C)CO)C[C@@H](C)[C@@H](CN(C)C(=O)Nc2ccc(F)cc2)O3)cc1	15
C[C@@H]1CN([C@H](C)CO)C(=O)Cc2cc(NC(=O)Nc3cccc4ccccc34)ccc2O[C@H]1CN(C)C(=O)Nc1ccccc1	2
Cc1cc(C)cc(NC(=O)CSC2CC(=O)N(c3ccc(F)cc3)C2=O)c1 (stereo unspecified)	-14
CC(C)NC(=O)Nc1ccc2c(c1)CC(=O)N([C@H](C)CO)C[C@@H](C)[C@@H](CN(C)CC1CC1)O2	-6
COc1ccc(S(=O)(=O)Nc2ccc3c(c2)C(=O)N([C@H](C)CO)C[C@@H](C)[C@@H](CN(C)Cc2ccccc2)O3)cc1	-13
COc1ccc(N2Cc3ccccc3C3(CCOCC3)C2=N)cc1	39
C[C@H]1CN([C@@H](C)CO)C(=O)c2cccc(NC(=O)C3CC3)c2O[C@H]1CN(C)Cc1ccccc1	-4
O=[N+]([O-])c1nn(-c2ccc(Cl)cc2)n(O)c1=NCc1ccccn1	112*
C[C@H](CO)N1C[C@H](C)[C@H](CN(C)Cc2ccc(C(=O)Nc3ccccc3N)cc2)Oc2c(NC(=O)C3CCCCC3)cccc2C1=O	127*
C[C@H](CO)N1C[C@H](C)[C@H](CN(C)Cc2ccc(-c3ccccc3)cc2)Oc2ccc(NC(=O)Cc3cn(C)c4ccccc34)cc2C1=O	85*
Cc1noc(C)c1S(=O)(=O)Nc1ccc2c(c1)CC(=O)N([C@H](C)CO)C[C@@H](C)[C@H](CN(C)S(C)(=O)=O)O2	-10
Cc1ccc(S(=O)(=O)Nc2ccc3c(c2)CC(=O)N([C@H](C)CO)C[C@H](C)[C@H](CN(C)Cc2ccc(Oc4ccccc4)cc2)O3)cc1	111*
Cc1noc(C)c1NC(=O)Nc1ccc2c(c1)C(=O)N([C@H](C)CO)C[C@@H](C)[C@@H](CN(C)S(C)(=O)=O)O2	-13
CC1CN(c2ccc(NC(=O)c3ccco3)cc2C(=O)O)CC(C)O1 (stereo unspecified)	18
NS(=O)(=O)c1ccc(Cl)cc1Sc1ccccc1C(=O)O	-27
Cc1cccc(-c2nnc(SCC(=O)Nc3cccc(Br)c3)n2C)c1	7
CC(C)OC(=O)Nc1cc(Cl)cc(Cl)c1	59
CCn1c(SCC(=O)Nc2ccc(Cl)cc2Cl)nnc1-c1cccc(Cl)c1	21

Another view of part of the listing above.
smiles | NOMO-1 viab
C[C@@H]1CN([C@H](C)CO)C(=O)c2cc(NC(=O)Cc3cn(C)c4ccccc34)ccc2O[C@@H]1CN(C)C(=O)Nc1ccccc1 | 50
COc1ccc(C2=Cc3ccccc3C(C)(C)O2)cc1 | 16
Cc1ccc(C(=O)Nc2ccccc2C(=O)NCc2ccco2)cc1[N+](=O)[O-] | 14
O=[N+]([O-])c1nn(-c2ccc(Cl)cc2)n(O)c1=NCc1ccccn1 | 112*

Next records follow.
SMILES	NOMO-1 viab
COc1ccc(NC(=O)Nc2cccc3c2O[C@@H](CN(C)Cc2ccncc2)[C@H](C)CN([C@H](C)CO)C3=O)cc1	2
O=S1(=O)CC(O)C(NCc2ccco2)C1 (stereo unspecified)	-9
C[C@H](CO)N1C[C@H](C)[C@H](CN(C)Cc2ccc(C(F)(F)F)cc2)Oc2ccc(NC(=O)NC3CCCCC3)cc2C1=O	37
Cc1noc(C)c1S(=O)(=O)N(C)C[C@H]1Oc2ccc(NS(=O)(=O)c3ccc(Cl)cc3)cc2CC(=O)N([C@@H](C)CO)C[C@H]1C	16
C[C@H]1CN([C@@H](C)CO)C(=O)c2cc(NC(=O)c3ccncc3)ccc2O[C@@H]1CN(C)S(=O)(=O)c1cn(C)cn1	7
C[C@H]1CN([C@@H](C)CO)C(=O)c2cccc(NC(=O)CCCCCC(=O)Nc3ccccc3N)c2O[C@H]1CN(C)S(=O)(=O)c1ccccc1	65
C[C@@H]1CN([C@@H](C)CO)C(=O)c2cccc(NC(=O)c3ccncc3)c2O[C@@H]1CN(C)CC1CCCCC1	9
COc1ccc(NC(=O)N(C)C[C@@H]2Oc3c(NS(=O)(=O)c4cn(C)cn4)cccc3C(=O)N([C@@H](C)CO)C[C@H]2C)cc1	-11
C[C@H]1CN([C@@H](C)CO)C(=O)Cc2cc(NS(=O)(=O)c3cn(C)cn3)ccc2O[C@@H]1CN(C)Cc1ccc(Oc2ccccc2)cc1	-2
O=C1c2ccccc2C(=O)N1CCCc1nc2c3c4c(sc3ncn2n1)CCCCC4	7
Cc1noc(C)c1NC(=O)Nc1ccc2c(c1)C(=O)N([C@H](C)CO)C[C@@H](C)[C@H](CN(C)S(=O)(=O)c1cn(C)cn1)O2	-3
C[C@@H]1CN([C@H](C)CO)C(=O)Cc2cc(NS(=O)(=O)c3cn(C)cn3)ccc2O[C@H]1CN(C)CC1CCCCC1	31
O=C(CSc1nnnn1-c1ccccc1)Nc1ccc(Br)cc1Cl	24
C[C@@H]1CN([C@@H](C)CO)C(=O)c2cccc(NS(=O)(=O)c3ccccc3)c2O[C@H]1CN(C)Cc1ccc(C(F)(F)F)cc1	5
